NS1 function inh – inhibitors of influenza NS1 protein function. S. cerevisiae slowed by influenza A NS1, growth recovery by OD600. Potency, µM (series often up to 46.1 µM), for inactives: at the highest dose activity, positive = more growth. 270,000 compounds, 0.4% hits; active means well fitted rising curve with a large enough effect; inconclusive means small, poorly fitted or top-dose-only effect; inactive means no such curve, though single readings can be large or run the other way; also: nearly all actives have a fitted effect of over 50% in size
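Read-out: OD600 growth recovery of NS1-expressing budding yeast. Cells grown overnight at 30C in -URA glucose medium, washed, resuspended and diluted 1:100 in 2% galactose assay medium, pH 6.0. Same strain lacking NS1 served as positive control.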
Cruzain inh noDet – blocks cruzain activity in detergent-free assay; P25779; purified cruzain, Z-FR-AMC fluorescence, no detergent; Potency, µM, inactives show max response, negative = inhibition, usual class: inhibitors; 200,000 compounds, 2.3% hits; AID 1476;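 also: plate controls were enzyme without inhibitor for no effect and buffer without enzyme for full effect; nearly all actives have a fitted effect of over 40% in size; top concentration of the series not given in the record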
Target sequence (P25779 123-467 limits assumed): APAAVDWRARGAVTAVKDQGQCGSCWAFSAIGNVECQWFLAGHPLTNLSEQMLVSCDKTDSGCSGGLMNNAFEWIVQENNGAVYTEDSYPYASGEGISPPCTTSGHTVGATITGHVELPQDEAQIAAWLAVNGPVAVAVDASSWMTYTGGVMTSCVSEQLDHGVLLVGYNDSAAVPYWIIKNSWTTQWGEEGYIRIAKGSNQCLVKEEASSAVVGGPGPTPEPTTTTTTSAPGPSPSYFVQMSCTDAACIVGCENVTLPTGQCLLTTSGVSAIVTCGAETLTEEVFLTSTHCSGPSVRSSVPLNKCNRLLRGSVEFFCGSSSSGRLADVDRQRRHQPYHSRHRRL
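Detergent-free condition (0.00005% Triton X-100) in acetate buffer pH 5.5 with DTT. 1.5 nM enzyme and compound were pre-mixed 15 min, then 2 uM Z-FR-AMC substrate added; reaction progress from fluorescence change between first and third reads (60 s).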
Lassa entry inh – inhibitors of Lassa virus binding or cell entry; Lassa virus pseudotype entry inhibition, cell reporter; control for the full effect not named in the record; Potency, µM (top dose mostly 37.9 µM), for inactives: at the highest dose activity change, negative = inhibition, actives largely listed as inhibitors; 300,000 compounds, 1.2% hits; active means well fitted inhibition curve with a large enough effect; inconclusive means small, poorly fitted or top-dose-only effect, or effect the other way; inactive means flat fitted curve, though single readings scatter; tested in HEK293 cells; also: % is scaled to controls: 0 for no effect and ±100 for the full control effect; nearly all actives have a fitted effect of over 50% in size; luciferase read-out
SARS PLP yeast – SARS-CoV PLP inhibition in yeast; AID 485353; 330,000 compounds, 0.19% hits; S. cerevisiae expressing SARS-CoV PLpro, growth rescue; control for the full effect not named in the record; Potency, µM (highest dose often 32.9 µM), inactives show top-dose activity, positive = growth rescue; active means well fitted rising curve with a large enough effect; inconclusive means small, poorly fitted or top-dose-only effect; inactive means no such curve, though single readings can be large or run the other way; also: 0% is about no effect; nearly all actives have a fitted effect of over 55% in size; growth read by luminescence after 48 h
StopGo reporter – lowers the luciferase signal of an FMDV 2A StopGo reporter; human cells with a luciferase reporter of 2A StopGo recoding; control for the full effect not named in the record; Potency, µM (series often up to 57.9 µM), for the others: at the highest dose signal change, negative = less light; 410,000 compounds, 1.2% hits; AID 1159524; active = well fitted falling curve with a large enough effect; inconclusive = small, poorly fitted or top-dose-only effect; inactive = no such curve, though single readings can be large or run the other way; tested in HEK293T cells; also: % is scaled to controls: 0 for no effect and ±100 for the full control effect; nearly all actives have a fitted effect of over 45% in size; luciferase light after 4 h
MARV entry inh – inhibitors of Marburg virus binding or cell entry; 300,000 compounds, 1.8% hits; Marburg virus pseudotyped entry inhibition, cell reporter; control for the full effect not named in the record; about a third of the inactives were read at about 46 µM; Potency, µM (titrated, usually from 37.8 µM), without a hit: top-dose activity change, negative = inhibition, most hits filed as inhibitors; active = well fitted inhibition curve with a large enough effect; inconclusive = small, poorly fitted or top-dose-only effect, or effect the other way; inactive = flat fitted curve, though single readings scatter; tested in HEK293 cells; about a fifth of its hits are not listed in these tables; also: % is scaled to controls: 0 for no effect and ±100 for the full control effect; luciferase read-out
RE007 growth inh – less growth of the S. pombe RE007 Vpr strain; S. pombe RE007 Vpr strain, BacTiter-Glo ATP luminescence, 24 h; control for the full effect not named in the record; Potency, µM (series often up to 92.2 µM), without a hit: at the highest dose activity change, negative = less growth; 360,000 compounds, 0.21% hits; active = well fitted falling curve with a large enough effect; inconclusive = small, poorly fitted or top-dose-only effect; inactive = no such curve, though single readings can be large or run the other way;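 also: % is scaled to controls: 0 for no effect and ±100 for the full control effect; nearly all actives have a fitted effect of over 50% in size; the assay follows cell death caused by Vpr and the record does not say whether a fall means rescue or toxicity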
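Fission yeast RE007 carrying one integrated HIV-1 vpr copy, seeded at OD 0.01 in PMG+AL medium with 23 nL pinned compound. Grown 24 h at 30 degrees; viability read by BacTiter-Glo luminescence after 5 min.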
Cruzain Triton – inhibitors of Trypanosoma cruzi cruzain with detergent; P25779; purified cruzain, Z-FR-AMC fluorescence, 0.01% Triton; Potency, µM, for the others: max response, negative = inhibition, hits mostly inhibitors; 200,000 compounds, 0.43% hits; AID 1478;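 also: plate controls were neutral wells for no effect and buffer without enzyme for full effect; nearly all actives have a fitted effect of over 40% in size; top concentration of the series not given in the record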
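Sodium acetate buffer (100 mM, pH 5.5) containing 5 mM DTT and 0.01% Triton X-100 hosted 1.5 nM cruzain and test compound for 15 min at room temperature. Cleavage of 2 uM Z-FR-AMC was then tracked by fluorescence.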
The depositor's hits bear a star; ? = inconclusive; / = not tested or not shown; & = joins results of further samples; [ ] = dose if it differs, or a comment. Unless noted, calls follow the shape of the dose curve; as a rule, active = well fitted curve in the direction sought with a large enough effect; inconclusive = small, poorly fitted or top-dose-only effect, or another doubt; inactive = no such curve, though single readings can be large; an effect the other way counts as inactive or inconclusive. Potency is read from the fitted curve at half-maximal effect.

SMILES	NS1 function inh	Cruzain inh noDet	Lassa entry inh	SARS PLP yeast	StopGo reporter	MARV entry inh	RE007 growth inh	Cruzain Triton
Cc1cc(C)cc(-c2nc(-c3ccncc3)no2)c1	-37%	4%	/	7%	19%	/	-10%	2.8%
COc1ccccc1N1CCN(CCCNC(=O)Nc2ccccc2)CC1	-3%	7%	-17%	-2%	?	?	3%	-1.8%
CCCn1c(SCC(=O)Nc2nc(C)c(C(=O)OC)s2)nnc1C(C)C	-2%	11%	0%	1%	-16%	?	6%	0.4%
O=C(Nc1ncc([N+](=O)[O-])s1)C1COc2ccccc2O1 (centres undefined)	-114%	/	/	-20%	-1%	/	?	/
CCCNc1ncnc2[nH]ncc12	0%	5%	-1%[46.1 µM]	/	-13%	2%[46.1 µM]	9%	-2.9%
CCN1C(=O)NC(=O)C2(CCCC2)C1=O	/	/	12%[46.1 µM]	/	-20%	?	1%	/
Cc1ccc(CN2CCSc3ccc(C(=O)N4CCN(c5ccccc5)CC4)cc32)cc1	/	-12%	-10%[46.1 µM]	/	-7%	4%[46.1 µM]	/	-2.5%
COc1ccc(-c2c3c(=O)n(C)c(=O)n(C)c3cn2-c2cc(OC)ccc2OC)cc1	-38%	?	?	0%	0%	13µM*	-15%	-6.4%
Cc1cc(OCC(=O)N2CCC(C(=O)O)CC2)c2c3c(c(=O)oc2c1)CCC3	2%	/	/	8%	-13%	/	-3%	/
COC(=O)c1ccc2c(=O)n3nc(Nc4cc(OC)ccc4OC)sc3nc2c1	/	13%	-7%[46.1 µM]	/	0%	/	/	4.0%
O=C(CSc1n[nH]c(-c2ccccc2)n1)Nc1ccccc1O	-6%	/	?	29%	-29%	-4%	-9%	/
COC(=O)Cc1ccc(NC(=S)NCc2ccc(Cl)cc2)cc1	-3%	-3%	10%	-18%	14%	1%	-3%	-4.2%
Cc1nc(C(=O)NNC(=O)c2ccccc2)c(C(F)(F)F)o1	-2%	/	?	0%	-4%	-1%[46.1 µM]	6%	/
CCCOc1ccc(NC(=O)CC2C(=O)N(c3ccccc3)C(=O)N2Cc2ccc(F)cc2)cc1 (centres undefined)	/	7%	-9%[46.1 µM]	/	-6%	/	/	-9.7%
Cc1c(NC(=O)CSc2nnc(Nc3ccccc3)s2)c(=O)n(-c2ccccc2)n1C	1%	-4%	0%	30%	-11%	-28%	8%	-4.3%
CCn1c2ccccc2c2cc(/C=N/NC(=O)c3cc(O)cc(O)c3)ccc21	-8%	/	?	-1%	?	?	-13%	/
COc1ccc2c(c1)CC/C2=N\OC(=O)c1cccc(C)c1	-35%	1%	?	-40%	0%	?	-10%	-4.8%
Cc1cc(N2CCN(Cc3cn(C)nc3-c3ccccc3F)CC2)cc(C)n1	2%	/	?	0%	-11%	?	-15%	/
COc1ccccc1NC(=O)CSc1nc(O)cc(=O)[nH]1	?	-19%	-3%	4%	/	-1%&-8%	-8%	1.6%
COc1ccc(Cc2noc(CN(C)CC3CCN(Cc4ccccc4)CC3)n2)cc1OC	5%	/	/	0%	?	/	1%	/
COc1ccc(C(CNC(=O)c2ccc(NS(=O)(=O)c3ccc(F)c(C)c3)cc2)N(C)C)cc1 (centres undefined)	/	/	-12%	-9%	-9%	-24%	1%	/
Clc1ccc(CNc2nc(N3CCOCC3)nc(N3CCOCC3)n2)cc1	-13%	28%	21%	-7%	?	-28%[46.1 µM]	-18%	4.2%
Cc1ccn(C)c(=N)c1	7%	/	/	-1%	6%	/	15%	/
COC(=O)c1ccccc1NC(=O)Cn1ncc2c(C)n(Cc3ccc(F)cc3)c(C)c2c1=O	/	-22%	-18%[46.1 µM]	/	?	-5%[46.1 µM]	/	-2.0%
Nc1c(C(=O)N/N=C/c2ccc([N+](=O)[O-])cc2)sc2nnc(-c3ccccc3)c(-c3ccccc3)c12	4%	/	/	1%	-17%	/	-4%	/
Further entries.
SMILES	NS1 function inh	Cruzain inh noDet	Lassa entry inh	SARS PLP yeast	StopGo reporter	MARV entry inh	RE007 growth inh	Cruzain Triton
CCN(CC)S(=O)(=O)c1ccc(C)c(NC(=O)COC(=O)c2ccc(C)c(S(=O)(=O)N3CCOCC3)c2)c1	14%	?	20%	-2%	-8%	-11%	-15%[3.69 µM]	1.9%
COc1ccc(C(=O)c2c[nH]c(C(=O)NCc3cccnc3)c2)cc1	-4%	9%	11%	1%	-21%	-1%[46.1 µM]	4%	-5.3%
COc1ccc(S(=O)(=O)NCCc2ccccc2)c2cccnc12	-4%	/	/	1%	65%[activator]	/	2%	/
CCCCNC(=S)Nc1cccc(C(C)=O)c1	-6%	5%	1%	5%	79%[activator]	-2%	/	-4.5%
O=C(c1ccc(N2CCN(C(=O)c3ccc(F)cc3F)CC2)cc1)c1cccc(F)c1	-23%	/	/	-1%	?	/	13%	/
CCOC(=O)C1CCN(c2ncnc3cc(OC)c(OC)cc23)CC1	-2%	/	-28%[46.1 µM]	1%	0%	5%[46.1 µM]	8%	/
COC(=O)C(C)(C(=O)OC)c1ccc([N+](=O)[O-])cn1	-5%	3%	7%	3%	25%	8%	12%	2.6%
CNS(=O)(=O)c1cccc(C(=O)OCc2cc(C(C)=O)ccc2OC)c1	5%	/	-23%	-4%	-5%	-16%[14.2 µM]	-1%	/
Cc1cc(-c2ccc(C)c(S(=O)(=O)N(C)c3ccc(C)c(C)c3)c2)on1	/	-4%	-23%[46.1 µM]	/	40µM*	/	/	-3.2%
CCOc1ccc(NC(=O)CC2C(=O)N(c3ccccc3)C(=S)N2Cc2ccccn2)cc1 (centres undefined)	13%	?	-23%	3%	-17%	0%	1%	3.1%
CC(=O)Nc1nc(C(=O)O)cs1	/	/	18%	8%	-2%	?	-1%	/
CCCCn1c(SCC(=O)Nc2nnc(C)s2)nc2c1c(=O)n(C)c(=O)n2C	-1%	-3%	1%	1%	13%	-1%	7%	2.9%
Cc1ccc(C(=O)N/C(=C\c2ccc3c(c2)OCO3)C(=O)Nc2ccc(C(=O)O)cc2)cc1	/	/	-6%	2%	5%	?	0%	/
CSc1cccc(NC(=O)c2cccc(N3CCCS3(=O)=O)c2)c1	/	-6%	2%[46.1 µM]	/	-5%	/	/	-3.8%
CCn1cc(C(=O)NCC2CCCO2)c2cc(OC)c(OC)cc2c1=O (centres undefined)	-1%	-2%	-9%	-4%	-14%	45%	-1%	0.4%
Cc1cccc(N2CCN(C(=O)c3ccccn3)CC2C)c1 (centres undefined)	/	/	-15%[46.1 µM]	6%	-3%	-1%[46.1 µM]	5%	/
Cc1ccc(-n2cccn2)c(CN2CCC(CO)(CCc3ccccc3)CC2)c1	0%	/	-5%	2%	-5%	8.9µM*	-6%	/
O=c1/c(=C\c2ccc(F)cc2)sc2n1CCCN=2	/	/	?	-3%	36%[activator]	-4%[46.1 µM]	?	/
O=C(O)C1CCCN1S(=O)(=O)c1ccc(Cl)cc1 (centres undefined)	3%	/	/	1%	-7%	/	16%	/
CCCCc1cc(=O)oc2cc(OCc3nn[nH]n3)c(Cl)cc12	?	2%	1%	-4%	-9%	19%	1%	-7.9%
COc1cc(NC(=O)COC(=O)CC(C)(C)C)c(C)cc1[N+](=O)[O-]	-15%	5%	2%	-21%	10%	-11%	-10%	-1.4%
CC(=O)CCc1oc2ccccc2c1-c1ccccc1	-7%	/	11%	-3%	-28%	?	-18%	/
O=C(N/C=N/O)C1=NOC(CNc2ncc(C(F)(F)F)cc2Cl)C1 (centres undefined)	-104%	6%	4%	-7%	44%[activator]	9%	0%	0.3%
Cc1cccc(C(=O)Nc2c(C#N)c(C)c(C)n2Cc2ccccc2)c1	13%	-6%	6%	0%	?	-19%	14%	6.3%
CN(C)CCCn1c(-c2ccccc2)nc(=S)c2c1CCCC2	-4%	-9%	-12%	1%	23%	-2%	8%	-6.4%
New compounds follow.
SMILES	NS1 function inh	Cruzain inh noDet	Lassa entry inh	SARS PLP yeast	StopGo reporter	MARV entry inh	RE007 growth inh	Cruzain Triton
CC1=C(C(=O)Nc2cc(C(=O)N3CCN(c4cccc(C)c4)C(C)C3)ccc2C)SCCO1 (centres undefined)	-1%	/	?	-9%	-24%	-25%[46.1 µM]	-3%	/
O=C(CNCc1ccccc1)Nc1ccccc1-c1ccccc1	-2%	2%	3%	-19%	-16%	?	-2%	-2.8%
CC(C)c1cc(CNC(=O)C2CCC(=O)N(CCc3ccc(Cl)cc3)C2)on1 (centres undefined)	-5%	/	/	-5%	-27%	/	6%	/
Cc1ccc(NC(=O)COc2nsnc2N2CCOCC2)cc1Cl	-3%	/	-2%[46.1 µM]	1%	-18%	?	2%	/
CCc1c(C)nc2cc(-c3ccccc3)[nH]n2c1=O	5%	/	-25%[46.1 µM]	-8%	-5%	-10%[46.1 µM]	-19%	/
Cc1ccc(-c2csc3ncnc(N4CCN(C)CC4)c23)cc1C	-25%	/	/	-2%	-21%	/	-13%	/
O=C(Cn1ncc2c3ccccc3n(Cc3ccccc3F)c2c1=O)N1CCC2(CC1)OCCO2	-28%	?	8%	0%	-4%	-1%&-1%	0%	-0.2%
N#Cc1c(NC(=O)c2nc3ncccn3n2)sc2c1CCCCC2	-4%	-22%	-30%	4%	0%	?	-10%	-1.7%
Cn1c(CNC(=O)Cc2ccc3c(c2)OCO3)nnc1SCc1ccccc1	-2%	1%	15%	-6%	8%	19%[46.1 µM]	-14%	4.1%
O=C(COc1ccccc1[N+](=O)[O-])Nc1ccc(CN2CCOCC2)cc1	/	/	20%[46.1 µM]	2%	-9%	-1%[46.1 µM]	-10%	/
O=P1(NC2CCCC2)COc2ccccc2OC1	8%	2%	-10%	0%	19%	5%	-10%	-0.7%
Cc1oc(-c2cccs2)nc1CS(=O)CC(=O)NCc1ccc2c(c1)OCO2 (centres undefined)	7%	/	-7%	1%	46%[activator]	1%	-17%	/
Cc1ccccc1Nc1cc(C(=O)NCCCN2CCN(c3cccc(Cl)c3)CC2)c2ccccc2n1	/	?	?	/	?	/	/	-22%
COCc1cc(=O)[nH]c(SC)n1	-4%	/	8%	0%	-15%	0%	-10%	/
CCN(CC)c1ccc(NC(=O)Cn2nc(C)n3cccc3c2=O)c(C)c1	/	?	-4%[46.1 µM]	/	-16%	?	/	-8.0%
